Ecoli rRNA inh: reduced GFP signal of wild-type E. coli, primary screen, bacterial rRNA inhibitor project, GFP/RFP fluorescence, OD600, single point; GFP signal change (wild-type ribosome), % (test concentration not listed); E. coli WT GFP vs humanized-ribosome RFP mutants, 24 h; hits give low values; DMSO median 0, no signal -100; 350,000 tested, 1.6% active;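 active = significant combined selectivity score with lowered wild-type GFP, culture density cut under 30%, mutant RFP and density less affected; inactive = any of these conditions unmet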; also: one replicate is shown; some compounds called inactive have numbers as strong as hits
FGF22 binding: binders of human FGF22 protein, primary screen, FGF22 synaptogenesis inhibitor project, biophysical, thermal shift, single point. recombinant FGF22 thermal shift, SYPRO orange fluorescence; percent of sucrose octasulfate shift, DMSO zero. calls only at 9.99 µM. 340,000 tested, 1.5% active;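 active = melting point raised past a set limit in the mean and every replicate; inconclusive = no clear call; three in four hits are not shown here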
Target sequence (Q9HCT0 whole entry, looked up): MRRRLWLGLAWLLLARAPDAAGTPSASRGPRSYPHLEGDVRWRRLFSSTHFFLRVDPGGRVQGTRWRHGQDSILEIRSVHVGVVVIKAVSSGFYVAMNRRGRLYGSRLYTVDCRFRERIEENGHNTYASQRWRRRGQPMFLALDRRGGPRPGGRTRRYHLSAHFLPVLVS
HNF4A DNA FP: change in binding of human HNF4A to DNA, primary screen, biochemical, fluorescence polarization, FITC-DNA; Hepatocyte nuclear factor 4-alpha (Homo sapiens), P41235; 1 h; activity change, % at 10 µM; 360,000 tested, 0.3% active; AID 1224865, 2016; in the data active = activity change above about 30%, passing the limit was not always enough;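 also: controls were the assay level and a saturating level of protein; the project sought stronger binding though the title names inhibitors; some compounds called inactive have numbers as strong as hits; positive values seem to mean higher polarization but the record does not say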
Vif A3G: inhibitors of Vif binding to APOBEC3G peptide, primary screen, biochemical, TR-FRET, GST-Vif 1-94, biotin-A3G peptide, dose response retest (AID 1117319); one-dose inhibition, %; IC50 in µM for titrated hits; TR-FRET GST-Vif / biotin-A3G peptide binding; higher % means a stronger effect; test concentration not given here; strong numbers were not always called active; 260,000 tested, 0.57% active;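 active = above the screen mean plus three standard deviations and confirmed in dose response; inconclusive = results disagree or hit not tested in dose response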;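 also: Vif residues 1-94 fused to GST binding biotinylated APOBEC3G peptide 110-148; 0% = full assay without inhibitor and 100% = GST in place of GST-Vif; retest series ran down from 100 µM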
MLL AF4-AF9 inh: inhibitors of AF4 peptide binding to AF9, primary screen, biochemical, AlphaScreen, biotin-AF4 peptide, FLAG-AF9, single point | AID 651704, 2012 | inhibition, % at 10 µM | Protein AF-9 (Homo sapiens), P42568 | 350,000 tested, 0.47% active;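 active = every replicate reaching a set inhibition limit, whatever the replicate mean, cut at about 25% in these data; inconclusive = mean inhibition reaches that limit but some replicates miss it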;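 also: 0% = plate neutral control median and 100% = total signal loss; the record names both 10 and 1 µM as test concentration; the first replicate is given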
Target sequence (P42568 whole entry, looked up): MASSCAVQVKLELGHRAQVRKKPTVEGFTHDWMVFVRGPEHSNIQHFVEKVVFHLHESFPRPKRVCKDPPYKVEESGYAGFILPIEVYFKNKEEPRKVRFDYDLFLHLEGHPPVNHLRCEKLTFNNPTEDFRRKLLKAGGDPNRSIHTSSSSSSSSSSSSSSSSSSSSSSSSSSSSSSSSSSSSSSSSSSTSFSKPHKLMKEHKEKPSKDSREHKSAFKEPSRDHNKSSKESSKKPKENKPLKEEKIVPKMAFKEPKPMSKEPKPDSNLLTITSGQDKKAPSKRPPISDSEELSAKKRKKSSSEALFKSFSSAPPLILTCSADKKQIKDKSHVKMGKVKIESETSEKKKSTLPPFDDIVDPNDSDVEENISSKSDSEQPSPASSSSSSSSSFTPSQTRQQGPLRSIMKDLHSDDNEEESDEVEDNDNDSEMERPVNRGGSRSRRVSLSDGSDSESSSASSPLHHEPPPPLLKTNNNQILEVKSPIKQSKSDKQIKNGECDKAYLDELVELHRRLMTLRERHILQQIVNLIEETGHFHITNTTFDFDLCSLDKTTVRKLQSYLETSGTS
Ecoli growth: E. coli growth inhibition, primary screen, OD600; OD600 absorbance (test concentration not listed); 330,000 tested, 0.21% active; Escherichia coli growth, 23 h; hits give low values; AID 1053175, 2014;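 active = OD600 absorbance below the run mean of sample wells minus 3.6 SD, in any replicate, cut at about 0.56 in these data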;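 also: stock transfer was 300 nL into about 60 µL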
ALR inh: inhibitors of human ALR sulfhydryl oxidase, primary screen, biochemical, H2O2 detection, HRP-luminol luminescence, single point; AID 485317, 2010; FAD-linked sulfhydryl oxidase ALR (Homo sapiens), P55789; 290,000 tested, 3.8% active; inhibition, % (no concentration beside the values); purified ALR, DTT oxidation;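 active = mean and each replicate at 75% or more; inconclusive = only one of the two met; inactive = neither met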;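 also: stock transfer was 7.5 nL into about 7.5 µL; 0% = neutral wells and 100% = wells with inactivated enzyme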
Target sequence (P55789 whole entry, looked up): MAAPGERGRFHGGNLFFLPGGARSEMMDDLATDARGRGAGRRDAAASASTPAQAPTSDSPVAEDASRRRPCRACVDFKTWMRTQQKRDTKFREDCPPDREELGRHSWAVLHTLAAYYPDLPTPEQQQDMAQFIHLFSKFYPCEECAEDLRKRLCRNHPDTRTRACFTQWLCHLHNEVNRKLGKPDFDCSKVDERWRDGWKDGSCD
Ecoli rRNA inh OD600: recorded beside Ecoli rRNA inh, whose call it bears; OD600 change, %; measured here: OD600 growth;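 optical density of the mix in the first replicate; 0 = DMSO median and -100 = no signal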
Ecoli rRNA inh RFP: second read-out of Ecoli rRNA inh, no call of its own (marks repeat the call); RFP signal change, %; measured here: RFP humanized mutant strains;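 first replicate; 0 = DMSO median and -100 = no signal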
Active calls of the source: *; i = inactive; u = inconclusive; x = no result given; & = joins results of further samples. Not all compounds are listed; the hit share may differ from the screen's.

SMILES	Ecoli rRNA inh	Ecoli rRNA inh OD600	Ecoli rRNA inh RFP	FGF22 binding	HNF4A DNA FP	Vif A3G	MLL AF4-AF9 inh	Ecoli growth	ALR inh
COc1cccc(C2CC(c3ccc(Cl)cc3Cl)Nc3nc(N)nn32)c1 (centres undefined)	x	x	x	x	-0.4	-4%	x	0.73	x
O=C1CC(O)(c2ccccc2)C(c2ccccc2)=C1c1ccccc1 (centres undefined)	x	x	x	x	-2.8	1%	x	0.73	-3
CC1CCc2c(C(=O)NCC3CCCO3)csc2C1 (centres undefined)	x	x	x	x	0.9	0%	x	0.72	-8
C[C@H]1CN([C@@H](C)CO)C(=O)c2cc(NS(=O)(=O)c3ccccc3)ccc2O[C@@H]1CN(C)CC1CC1	3	5	-0.6	i	x	x	-0.8	x	x
C=CCNC(=O)c1cc2c(=O)n3ccccc3nc2s1	3	-3	-5.0	i	3.5	-3%	-2.2	0.67	-5
C=CCNc1nc(C(=O)OCC(=O)c2ccc(C)c([N+](=O)[O-])c2)cs1	6	9	-0.9	i	3.6	4%	-1.2	0.7	-4
COC(CNC(=O)c1c[nH]c2ccc(S(=O)(=O)N(C)c3ccc(F)cc3)cc2c1=O)OC	-2	6	-0.2	i	1.0	8%	0.0	0.68	-3
COc1ccccc1NC(=O)/C=C/C(N)=O	10	14	-0.3	i	2.0	-4%	5.6	0.7	1
COc1ccc(/C=N/S(=O)(=O)c2cccs2)cc1	x	x	x	x	3.4	6%	x	x	0
CCCSc1nnc(-c2cccc(S(=O)(=O)N(C)C)c2)n1-c1cc(OC)ccc1OC	x	x	x	x	-3.3	4%	x	0.68	-12
O=S(=O)(c1ccccc1)N1CCN(S(=O)(=O)c2ccccc2)c2ccccc21	-2	-10	15	i	-0.9	4%	0.9	0.75	x
CSc1nc2sc3c(c2c(=O)[nH]1)CCC(C)C3 (centres undefined)	5	8	-1.9	x	0.0	u	x	0.71	1
O=C(CCc1nnc(C2CCCCC2)o1)NCCCOc1cccnc1	2	10	-0.2	i	-5.5	13%	-2.6	0.72	1
COc1ccccc1-c1cnc2c(c1)C(=O)N([C@@H](C)CO)C[C@@H](C)[C@@H](CN(C)Cc1cncnc1)O2	3	-1	-3.1	i	x	x	-3.1	x	x
O=C(NCc1nc2ccccc2[nH]1)C1=C[C@H](C2CC2)C[C@H](OCc2ccc(CO)cc2)O1	7	8	1.2	i	-1.7	14%	-5.2&-3.5	x	x
O=C(C[C@H]1CC[C@@H](NC(=O)Nc2ccc(F)cc2)[C@H](CO)O1)NCCN1CCCC1	4	3	-0.9	i	x	x	-4.9	x	x
CN(C)c1ccc(CNC23CN4CN(CN(C4)C2)C3)cc1	x	x	x	x	0.8	-1%	x	0.74	0
O=S1(=O)CCN(Cc2csc(-c3cccs3)n2)CC1	23	10	0.0	i	-1.6	12%	2.1	0.63	x
CC(=O)N(C(C)=O)c1ncn(C)c1S(=O)(=O)Nc1ccccc1	x	x	x	i	-3.3	-13%	-0.5	0.69	x
O=S(=O)(NCC1CCCO1)c1ccc(S(=O)(=O)N(Cc2ccccn2)C2CC2)cc1 (centres undefined)	x	x	x	x	-2.2	-1%	x	0.72	-6
CCc1cc(=O)oc2cc(C)cc(OC(=O)c3ccco3)c12	x	x	x	x	-1.2	5%	x	0.67	38
CC(C)S(=O)(=O)N1CCCC(c2cc(C(=O)Nc3ccc(F)c(Cl)c3)no2)C1 (centres undefined)	-19	-22	-2.6	i	0.3	x	0.1	x	x
CCCNC(=O)C[C@H]1CC[C@H]2[C@H](COc3ccc(NC(=O)CCC)cc3C(=O)N2C)O1	1	5	-5.0	i	x	x	-0.8	x	x
Cc1ccc(C(=O)O)cc1NC(=O)CN1C(=O)C2C3c4ccccc4C(Br)(c4ccccc43)C2C1=O (centres undefined)	5	-2	-7.5	i	-1.7	19%	2.2	0.66	8
CC(C)NC(=O)N(C)C[C@H]1Oc2ccc(NS(=O)(=O)c3ccc(F)cc3)cc2C(=O)N([C@H](C)CO)C[C@@H]1C	10&2	13&14	2.0&3.6	i	1.8	x	0.5	x	1
Cc1ccc(S(=O)(=O)Nc2ccc3c(c2)C(=O)N([C@@H](C)CO)C[C@@H](C)[C@H](CN(C)C(=O)Nc2ccc4c(c2)OCO4)OCCCC[C@@H](C)O3)cc1	-4	-4	-3.2	i	x	x	-1.3	x	x
O=C(CNC(=O)c1ccc2ccccc2c1)NCc1ccc(F)cc1	2	12	-0.5	x	3.9	x	1.0	0.72	1
COc1ccc2c3c(n(C)c2c1)[C@H](CO)N(Cc1ccccc1)CC31CN(C(=O)C2CC2)C1	-4	-9	-0.1	i	x	x	0.2	x	x
CNC(=S)N(CCc1c(C)[nH]c2ccc(Cl)cc12)Cc1cccnc1	-11	-22	-3.7	i	3.0	-8%	12	0.69	97*
CC(=O)N(C)C[C@H]1[C@@H](c2ccc(-c3ccccc3)cc2)[C@@H](CO)N1C(=O)C1CC1	0	10	-5.7	i	x	x	-2.4	x	x
CC(C)(C)c1cc(-c2ccccc2)n[nH]1	6	-9	9.0	i	-2.4	-6%	-0.1	0.7	-2
CC(=O)Nc1cc(C(=O)OCC(=O)c2ccc(C)cc2)ccc1C	x	x	x	i	-3.1	-2%	-1.4	0.71	-3
C[C@H]1CN([C@@H](C)CO)S(=O)(=O)c2ccc(C#Cc3ccc(F)cc3)cc2O[C@@H]1CN(C)C(=O)c1ccccn1	-44	-77	-8.2	i	x	x	2.2	x	x
O=C(Nc1nc(-c2cccc([N+](=O)[O-])c2)cs1)c1cccc([N+](=O)[O-])c1C(=O)O	20	7	-6.7	x	4.2	-1%	-0.4	0.65	4
N#Cc1cc(Cl)c(NCC2CCCO2)cc1C#N (centres undefined)	18	18	1.8	i	4.2	x	-1.8	0.7	-2
Cc1ccc(S(=O)(=O)N2CCCCC2)cc1NC(=O)Cn1c(=O)cnc2ccccc21	-3	3	8.2	i	8.6	11%	0.7	0.67	-1
C[C@H](CO)N1C[C@H](C)[C@@H](CN(C)C)Oc2ccc(NC(=O)CCN3CCOCC3)cc2C1=O	4	2	-0.6	i	x	x	-3.0	x	x
O=C(O)CSc1c2c(nc3cc(C(=O)Nc4ccc(F)c(Cl)c4)ccc13)CCCC2	-7	-1	-2.5	i	-2.8	x	0.8	0.68	2
CCOCCCN(C)C1CCN(C(=O)c2oc3ccccc3c2NC(=O)c2ccc([N+](=O)[O-])cc2)CC1	-6	4	2.5	i	4.6	x	1.2	0.69	-14
CCCc1nc(SCC(=O)Nc2nnc(CC)s2)c2c(C)c(C)sc2n1	x	x	x	x	0.4	-23%	x	0.7	-5
CCOc1ccccc1Nc1nnc(SCC(=O)Nc2cc(C)on2)s1	x	x	x	x	-3.0	3%	x	0.7	-9
O=C(NCCCn1ccnc1)/C(=C\c1cccnc1)NC(=O)c1ccco1	36	28	3.7	i	3.6	u	-0.5	0.7	-6
COC(=O)Cc1ccc(OC(=O)c2cccc(S(=O)(=O)N3CCN(C)CC3)c2)cc1	7	10	2.4	i	0.3	4%	0.2	0.7	-2
CC(C)C(=O)NCCc1nc(-c2ccccc2Cl)no1	3	12	-1.1	i	2.5	x	-0.8	0.68	-5
COc1ccccc1C(CCN(Cc1ccccc1)C(C)=O)c1ccco1 (centres undefined)	-13	-4	-5.6	i	-3.9	-8%	0.6	0.69	3
COc1ccc(N2CCN(C(=O)CSc3nnnn3C3CC3)CC2)cc1	-1	2	1.7	i	-0.8	-4%	-2.1	0.69	87*
CC(C)/C=C1\CC/C(=C\c2ccc(N(C)C)cc2)C1=O	-1	2	-3.2	i	121	-3%	-0.5	0.7	x
Cc1cc(C)nc(Nc2ccc(O)cc2)n1	8	16	-0.1	i	1.4	4%	-0.5	0.7	100*
COc1ccccc1C(O)c1nccn1C (centres undefined)	8	5	0.2	i	0.2	0%	-0.2	0.72	-6
CCOC(=O)N1CCN(C(=O)CSc2ccc3nnc(-c4cccnc4)n3n2)CC1	2	8	9.8	i	-0.6	x	7.6	0.69	-1
CCc1ccc(NC(=O)c2onc(C)c2Cl)cc1	-11	-24	-3.3	i	-2.2	-1%	-15	0.65	6
COC(=O)c1c(C)nc2ccccc2c1-c1ccccc1	x	x	x	x	-1.2	-2%	x	0.65	6
CCCNC(=O)[C@@H]1[C@@H](CO)[C@@H]2Cn3c(ccc(-c4ccccc4OC)c3=O)[C@@H]2N1C(=O)CC	-1	-1	-2.2	i	x	x	-2.7	x	x
O=C(NC1CCCC1)c1csc2c1CCCC2	0	4	1.1	i	-1.4	3%	3.3	0.65	-7
C=C1CN(Cc2ccccc2)S(=O)(=O)c2ccccc21	-25	-23	-12	i	1.4	-2%	1.1	0.68	0
Cc1nc(NC(=O)C(C)(C)C)sc1[N+](=O)[O-]	-6	-11	2.3	i	x	x	5.5	x	x
O=S(=O)(N[C@H]1CC[C@H](CCn2cc(C3(O)CCCC3)nn2)O[C@H]1CO)c1ccc(Cl)cc1	-3	-16	-7.2	i	x	x	-0.2	x	x
C[C@@H]1CN([C@@H](C)CO)C(=O)c2cc(C3=CCCC3)cnc2O[C@@H]1CN(C)C(=O)C1CCC1	-2	-2	-1.2	i	x	x	-3.7	x	x
O=C(CCCN1C(=O)/C(=C/c2cccc(Br)c2)SC1=S)N1CCOCC1	6	8	0.1	i	1.4	x	9.7	0.69	-5
COCCNC(=S)N/N=C(\C)c1ccc(Cl)c(Cl)c1Cl	10	16	6.7	i	4.1	-1%	0.0	x	55

Entries listed so far with a nitro group on carbon (4):
SMILES	Ecoli rRNA inh	Ecoli rRNA inh OD600	Ecoli rRNA inh RFP	FGF22 binding	HNF4A DNA FP	Vif A3G	MLL AF4-AF9 inh	Ecoli growth	ALR inh
C=CCNc1nc(C(=O)OCC(=O)c2ccc(C)c([N+](=O)[O-])c2)cs1	6	9	-0.9	i	3.6	4%	-1.2	0.7	-4
O=C(Nc1nc(-c2cccc([N+](=O)[O-])c2)cs1)c1cccc([N+](=O)[O-])c1C(=O)O	20	7	-6.7	x	4.2	-1%	-0.4	0.65	4
CCOCCCN(C)C1CCN(C(=O)c2oc3ccccc3c2NC(=O)c2ccc([N+](=O)[O-])cc2)CC1	-6	4	2.5	i	4.6	x	1.2	0.69	-14
Cc1nc(NC(=O)C(C)(C)C)sc1[N+](=O)[O-]	-6	-11	2.3	i	x	x	5.5	x	x

Continued:
SMILES	Ecoli rRNA inh	Ecoli rRNA inh OD600	Ecoli rRNA inh RFP	FGF22 binding	HNF4A DNA FP	Vif A3G	MLL AF4-AF9 inh	Ecoli growth	ALR inh
Cc1ccc2c(cnn2C(=O)CCC(=O)NC2CCCCC2)c1	13	8	0.7	i	-1.2	x	-4.9	0.72	6
COc1ccc(/C=C2/SC(=S)N(CCC(=O)Nc3cccnc3)C2=O)cc1OC	-1	10	-4.7	i	1.8	3%	-0.3	x	x
CCOC(=O)C1=C(C)N(C[C@@H]2CC[C@@H](Cc3ccc4cc(OC)ccc4c3)O2)C(=O)NC1c1ccccc1 (some centres undefined)	5	6	-1.0	i	-0.2	-3%	2.6	0.72	x
CCN(CC)CCNC(=O)c1cn(CCOC)c(=O)c2c1c1ccccc1n2C	3	18	8.3	i	-2.3	-7%	1.4	0.67	-6

Source: PubChem (several laboratories)
